# Source: PubChem BioAssay (Southern Research Institute)
# Mtb growth = Mycobacterium tuberculosis H37Rv growth inhibition, cell based, confirmatory dose response (AID 1949). most inactive calls were filed without a number and no value below 0 was filed. inhibition, % at 10 µg/mL, or IC50 in µg/mL where a hit was titrated. actives 1.6% (n = 100,000);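 active means confirmed in a dose series; inconclusive means about 50% or more but not retested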;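 further: bacteria grown 7 days with compound before Alamar blue readout; 0% = untreated bacteria and 100% = reference antibiotic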
# * = called active by the depositor; i = inactive; u = inconclusive. This is a subset, so the mix of outcomes need not match the whole.
SMILES,Mtb growth
COc1ccc(OC)c(NC(=O)Nc2ccccc2Oc2ccccc2)c1,i
Cc1ccc(C(=O)Nc2nonc2NC(=O)c2ccc(C)cc2)cc1,3.4%
Cc1cccc(OC(=O)COc2ccc3ccccc3c2Br)c1,i
CCN(Cc1ccccc1)C(=O)c1cc(Cl)ccc1OC,i
C=CCn1c(SCC(=O)Nc2ccc(NC(C)=O)cc2)nc2sc(-c3ccccc3)cc2c1=O,i
CCOC(=O)c1sc(Nc2cccc(C)c2)nc1C,i
O=c1cnnc(SCCc2ccccc2)[nH]1,i
O=C(O)c1cccc(NCc2ccncc2)c1,i
Cc1nn(-c2ccccc2)c(C)c1NC(=O)COc1ccc2ccccc2c1,i
COC(=O)c1ccc(OCC(=O)Nc2ccsc2C(=O)OC)cc1,i
CCOC(=O)N1CCN(C(=O)c2ccccc2NC(=O)c2ccco2)CC1,i
COc1ccc2[nH]c3nc4ccccc4nc3c2c1,i
O=C(Cc1cccs1)Nc1nnc(SCc2ccccc2)s1,i
CCN(c1ccccc1)S(=O)(=O)c1ccc(NC(=S)NC(=O)c2ccc(C)cc2)cc1,1.2%
COC(=O)c1sccc1NC(=O)c1cc2c(s1)CCCC2,i
CCn1c(-c2cc(OC)cc(OC)c2)n[nH]c1=S,1.8%
CCN(CC)S(=O)(=O)c1cc(Br)c(C)cc1OC,2.1%
C=CCn1c(SCC(=O)Nc2cc(C)ccc2C)nc2scc(-c3ccco3)c2c1=O,7.1%
CCOC(=O)c1c(NC(=S)Nc2ccsc2C(=O)OC)sc2c1CCCCCC2,6.9%
COc1ccc(NC(=O)c2cc([N+](=O)[O-])ccc2O)cc1,14.7%
COc1cc(C=O)ccc1OC(=O)N1CCOCC1,i
COc1ccc(NC(=O)CN(c2ccc(F)cc2)S(=O)(=O)c2ccc(OC)c(OC)c2)cc1,i
CN(c1cccc(NC(=O)c2ccc(N(Cc3ccc(Cl)cc3)S(C)(=O)=O)cc2)c1)S(C)(=O)=O,i
COC(=O)c1ccccc1NC(=O)C1CCN(C(=O)c2ccc(F)cc2)CC1,i
C=CCn1c(SCC(=O)Nc2cccc(OC)c2)nc2ccccc2c1=O,i
Cc1ccc(-c2nc(=S)[nH]n2-c2nc3ccccc3s2)cc1,1.4%
CC(C)C(=O)NC(c1ccco1)c1cc(Cl)c2cccnc2c1O (stereo not drawn),i
O=C1c2cccc3c(Nc4ccccc4Cl)c([N+](=O)[O-])cc(c23)C(=O)N1CCO,6.5%
C=CCN1C(=O)C(O)(CC(=O)c2ccc(N)cc2)c2ccccc21 (stereo not drawn),i
Clc1ccc2nc(SCc3ccccc3)[nH]c2c1,i
CCCCOc1ccc(S(=O)(=O)Nc2ccc(I)cc2)cc1,2.84µg/mL*
O=Cc1ccc(-c2ccc(Br)cc2F)o1,33.1%
CC(C)c1ccccc1NC(=O)C1CN(S(=O)(=O)c2ccccc2)CCN1S(=O)(=O)c1ccccc1 (stereo not drawn),i
O=C(c1cccs1)N1N=C(c2ccccc2)CC1c1cccs1 (stereo not drawn),i
Cc1ccc(-c2csc3nc[nH]c(=O)c23)cc1C,i
Cc1cc(OCC(=O)N2CCCC2)cc(C)c1Cl,0.3%
CC(=O)c1cccc(Nc2nc(-c3ccccn3)cs2)c1,0.98µg/mL*
CN1CCN(CCCOc2cccc(C(C)(C)C)c2)CC1,1.9%
O=C(COc1ccc(S(=O)(=O)NC2CCCC2)cc1)Nc1ccc2c(c1)OCCO2,i
Cn1nnnc1SCC(=O)Nc1cccc(Cl)c1,i
CCOc1c(CNCc2ccccn2)cccc1OC,5.1%
CNC(=O)Cn1c(=O)n(C)c2ccccc21,i
COc1ccc(S(=O)(=O)N(CC(=O)Nc2ccc(Cl)cc2)c2ccccc2OC)cc1,i
COC(=O)c1ccc(C)c(NC(=O)CN(c2ccc(F)cc2)S(C)(=O)=O)c1,i
O=C(Nc1nnc(SCc2ccc(Cl)cc2)s1)c1ccccc1Br,i
CC1(C)CC(=O)C2=C(C1)Nc1ccc3ccccc3c1C2c1ccccn1 (stereo not drawn),31.5%
Cc1c(-n2c(=S)[nH]c3ccccc3c2=O)c(=O)n(-c2ccccc2)n1C,i
COc1ccccc1Oc1ccc(NC(=S)NC2CCCCC2)cn1,i
COc1ccc(C2(CNC(=O)COc3ccccc3)CCOCC2)cc1,i
O=C(Nc1ccc(C(F)(F)F)cc1Br)c1ccco1,i
O=C(COc1ccccc1)Nc1cccc(Oc2ccc3c(c2)C(=O)NC3=O)c1,0.2%
O=C(O)C1CCCCC1C(=O)Nc1ccc2c(c1)CCC2 (stereo not drawn),i
O=C(CCC(=O)c1ccccc1)c1ccccc1,0.8%
Cc1ccc(S(=O)(=O)N2CCCC(C(=O)N3CCN(c4ccccc4)CC3)C2)cc1 (stereo not drawn),i
COc1ccc(C)cc1NC(=O)Nc1c(C)nn(Cc2cccc3ccccc23)c1C,6.1%
COC(=O)Cn1c(SC)nc2ccccc21,i
O=C(Nc1ccc(-c2cc3ccccc3oc2=O)c(Cl)c1)c1ccco1,i
C=CCn1c(SCC(=O)Nc2cc(Cl)ccc2OC)nc2sc(C)c(C)c2c1=O,i
Cc1ccc(OCC(=O)Nc2cccc(C)c2C)c(C)c1,i
COc1cc(OC)cc(C(=O)N/C(=N\c2nc(C)cc(C)n2)Nc2ccccc2F)c1,2.8%
# Other compounds
SMILES,Mtb growth
Cc1cc(NC(=O)c2cccc(NC(=O)C(C)C)c2)no1,i
O=C(O)C(Oc1ccc2c3c(c(=O)oc2c1)CCCC3)c1ccccc1 (stereo not drawn),i
CCN1C(=O)C(O)(CC(=O)c2ccccc2OC)c2ccccc21 (stereo not drawn),i
CCCOc1ccc(N2C(=O)CC(SCc3nc4ccccc4[nH]3)C2=O)cc1 (stereo not drawn),i
COc1ccc(OCCC(=O)NC2CCCCC2)cc1,1.8%
CCOc1ccc(S(=O)(=O)N2CCCC2)cc1,3.5%
Cc1[nH]nc(-c2ccc(O)c(C)c2O)c1-c1cnn(-c2ccccc2)c1,10.0%
Cc1ccc(OCc2nnnn2-c2ccccc2)cc1,i
Fc1ccc(NC(=S)NCCc2ccccc2)c(F)c1F,i
COc1ccc(C2/C(=C(\O)c3ccccc3)C(=O)C(=O)N2Cc2cccnc2)cc1 (stereo not drawn),i
Cc1cccc(CN2CCN(C3CCN(Cc4ccccc4)CC3)CC2)c1,i
O=S(=O)(O)c1cccc2cccnc12,i
CCOc1cc(CO)c(Br)cc1OCc1ccccc1F,3.7%
O=C(Nc1ccc(F)cc1)Nc1ccc([N+](=O)[O-])cn1,1.6%
O=C(N/N=C/c1ccc(O)cc1)c1cc(-c2ccc3ccccc3c2)n[nH]1,47.1%
COc1cc(C=Nn2c(-c3ccccc3)n[nH]c2=S)cc(OC)c1OC(C)=O,i
Cc1ccc(OCC(=O)Nc2ccc(Br)cc2F)c(C)c1,i
CCOC(=O)CSc1cc(C)nc2ccc(C)cc12,1.66µg/mL*
CC(=O)C1=C(O)C(=O)N(CC2CCCO2)C1c1ccc(F)cc1 (stereo not drawn),i
CCN(c1ccccc1)S(=O)(=O)c1ccc(NC(=O)c2nc(SC)ncc2Cl)cc1,7.2%
CCCCn1nnc(NC(=S)NC(=O)c2cccs2)n1,14.8%
Cc1ccc(-c2nc(Nc3ccccc3)n[nH]2)cc1,i
Cn1c(CSc2ccccc2)nc2ccccc21,i
CCc1cccc(CC)c1NC(=O)CN(c1cc(Cl)ccc1OC)S(=O)(=O)c1ccccc1,i
CCOc1ccc(OCc2cccc(C(=O)NCc3cccnc3)c2)cc1,1.9%
CCC(=O)Nc1ccc(S(=O)(=O)Nc2cccc(C)c2)cc1OC,i
O=C(Nc1ccccc1C(=O)NCC1CCCO1)c1ccc(Cl)cc1Cl (stereo not drawn),i
CN1CCN(C(=O)CN(c2ccc(F)cc2)S(C)(=O)=O)CC1,i
COC(=O)c1c(NC(=S)NCc2cc(C)n(C)n2)sc2c1CCCCCC2,i
CCCOc1ccc(C2C(C(=O)c3cccs3)=C(O)C(=O)N2Cc2cccnc2)cc1 (stereo not drawn),i
COc1ccc(-c2nn(-c3ccccc3)cc2CO)cc1,17.2%
NC(=O)c1ccccc1NC(=O)CSc1nc(N)cc(=O)[nH]1,i
CCOC(=O)c1c(NC(=O)c2ccc(Br)o2)sc(C(=O)OC)c1C,i
Cc1cc(Cl)cc(Cl)c1OCC(=O)Nc1cccc(F)c1,i
COc1cc([N+](=O)[O-])ccc1NC(=O)C1CC(Cl)=CCC1C(=O)O (stereo not drawn),i
CC(=O)Nc1cccc(-c2nnc(SCc3c(Cl)cccc3Cl)n2C)c1,i
O=C(O)c1ccc(Nc2c([N+](=O)[O-])ccc3nonc23)cc1,i
CNS(=O)(=O)c1ccc2nc(NC(=O)c3ccco3)sc2c1,i
O=C1C2C3C=CC(C3=C3CCCC3)C2C(=O)N1c1ccc(Cl)c(Cl)c1 (stereo not drawn),i
COc1ccc(-n2c(-c3cccs3)n[nH]c2=S)cc1,i

# Random excerpt: 2 entries already listed.
SMILES,Mtb growth
CC(=O)Nc1cccc(-c2nnc(SCc3c(Cl)cccc3Cl)n2C)c1,i
Cc1cc(Cl)cc(Cl)c1OCC(=O)Nc1cccc(F)c1,i

# (cont.)
SMILES,Mtb growth
O=C(CSc1nc2ccccc2[nH]1)N1c2ccccc2Sc2ccccc21,i
O=C(c1ccc(NC(=S)Nc2ccc(Cl)c(Cl)c2)cc1)N1CCOCC1,i
Cc1ccccc1CN(CC(=O)N1CCC(C)CC1)S(=O)(=O)c1ccc(Cl)cc1,i
O=S(=O)(c1ccc(Br)cc1)N1CCN(S(=O)(=O)c2ccc3ccccc3c2)CC1,i
Cc1nn(-c2ccccc2)c2c1C(c1cccc([N+](=O)[O-])c1)SCC(=O)N2 (stereo not drawn),i
Oc1ccccc1CNCCC12CC3CC(CC(C3)C1)C2,i
O=C(O)CCSc1nnc(SCCC(=O)O)s1,i
CCC(C(=O)Nc1ccsc1C(=O)OC)c1ccccc1 (stereo not drawn),i
O=[N+]([O-])c1ccc(-c2nc(NCCCO)c3ccccc3n2)cc1,u
Cc1ccc(-c2nnc(Nc3ccc(F)cc3)c3ccccc23)cc1S(=O)(=O)N1CCOCC1,9.0%
COc1ccc(/C=C2\SC(=S)N(CCC(=O)Nc3cc(C)on3)C2=O)cc1OC,i
CC(=O)Nc1ccc(-c2nc3ccccc3s2)c(Cl)c1,i
Cc1ccc(-c2nc3cc(NC(=O)COc4ccc([N+](=O)[O-])cc4)ccc3o2)cc1Cl,2.0%
Cc1oc(-c2cc(Cl)cc(Cl)c2)cc1C(=O)Nc1ccc(S(N)(=O)=O)cc1,2.4%
O=C1c2cccc3cccc(c23)C(=O)N1CCc1nc2ccccc2s1,i
CCOc1ccc(C(=O)NC(=S)Nc2ccc(I)cc2Cl)cc1[N+](=O)[O-],5.2%
CCc1c(C)c2ccc(OCc3ccc(F)cc3F)cc2oc1=O,i
CC(C)(C)C1CCc2c(sc(NC(=O)CSc3nnc(-c4ccccc4)o3)c2C#N)C1 (stereo not drawn),i
CCOc1ccccc1NC(=O)CN(Cc1ccccc1)S(C)(=O)=O,i
O=C(CSc1nnc(C2COc3ccccc3O2)n1-c1ccccc1)c1ccc(F)cc1 (stereo not drawn),0.8%
CCOc1cccc(OCCOCCOc2ccccc2C(C)=O)c1,1.9%
Cc1ccc2c(c1)c1c(n2CC(O)CNc2ccccc2)C(=O)CCC1 (stereo not drawn),7.3%
CC(C)(C)c1ccc(C(=O)Nc2ccc(C(F)(F)F)cc2)cc1,i
CC(=O)c1ccc(OC(=O)c2sc3ccccc3c2Cl)cc1,i
Cc1cccc(CN(CC(=O)Nc2ccc3c(c2)OCCO3)S(=O)(=O)c2ccc(Cl)cc2)c1,i
CNC(=O)c1cc2cccc(OC)c2oc1=O,i
NCCNCCOCCOc1cccc(Cl)c1Cl,i
COc1ccc(C(=O)Nn2c(C)ccc2C)cc1OC,i
O=C(Cc1cccs1)Nc1cccc(-c2nnc(-c3ccco3)o2)c1,i
Cc1ccc(C(C)NC(=O)c2c(C)noc2C)cc1C (stereo not drawn),i
Cc1onc(-c2ccccc2)c1C(=O)Nc1ccc(S(=O)(=O)Nc2ncccn2)cc1,i
CCCCC(=O)Nc1cccc(NC(=S)NC(=O)c2ccccc2OC)c1,i
COC(=O)c1cccc(NC(=O)CCCOc2ccccc2C)c1,0.7%
CCOC(=O)c1ccc(N2C(=O)CC(N3CCN(c4cccc(OC)c4)CC3)C2=O)cc1 (stereo not drawn),i
CCCCC(CC)C(=O)Nc1ccc(C)cc1Br (stereo not drawn),u
Cc1cc(S(=O)(=O)N2CCN(c3cccc(Cl)c3C)CC2)ccc1F,1.9%
CC(=O)Nc1ccc(-n2c(C)ccc2C)c(C(=O)O)c1,3.8%
O=c1cc(C(F)(F)C(F)F)oc2ccc(Cl)cc12,i

# Of the compounds above, 19 have an aryl thioether with sulfur outside any ring:
SMILES,Mtb growth
C=CCn1c(SCC(=O)Nc2ccc(NC(C)=O)cc2)nc2sc(-c3ccccc3)cc2c1=O,i
O=c1cnnc(SCCc2ccccc2)[nH]1,i
O=C(Cc1cccs1)Nc1nnc(SCc2ccccc2)s1,i
C=CCn1c(SCC(=O)Nc2cc(C)ccc2C)nc2scc(-c3ccco3)c2c1=O,7.1%
C=CCn1c(SCC(=O)Nc2cccc(OC)c2)nc2ccccc2c1=O,i
Clc1ccc2nc(SCc3ccccc3)[nH]c2c1,i
Cn1nnnc1SCC(=O)Nc1cccc(Cl)c1,i
O=C(Nc1nnc(SCc2ccc(Cl)cc2)s1)c1ccccc1Br,i
COC(=O)Cn1c(SC)nc2ccccc21,i
C=CCn1c(SCC(=O)Nc2cc(Cl)ccc2OC)nc2sc(C)c(C)c2c1=O,i
CCOC(=O)CSc1cc(C)nc2ccc(C)cc12,1.66µg/mL*
CCN(c1ccccc1)S(=O)(=O)c1ccc(NC(=O)c2nc(SC)ncc2Cl)cc1,7.2%
Cn1c(CSc2ccccc2)nc2ccccc21,i
NC(=O)c1ccccc1NC(=O)CSc1nc(N)cc(=O)[nH]1,i
CC(=O)Nc1cccc(-c2nnc(SCc3c(Cl)cccc3Cl)n2C)c1,i
O=C(CSc1nc2ccccc2[nH]1)N1c2ccccc2Sc2ccccc21,i
O=C(O)CCSc1nnc(SCCC(=O)O)s1,i
CC(C)(C)C1CCc2c(sc(NC(=O)CSc3nnc(-c4ccccc4)o3)c2C#N)C1 (stereo not drawn),i
O=C(CSc1nnc(C2COc3ccccc3O2)n1-c1ccccc1)c1ccc(F)cc1 (stereo not drawn),0.8%
